Bioassay records: PubChem, National Center for Advancing Translational Sciences (NCATS)
GLA inh pH 4.5: inhibitors of human alpha-galactosidase A at pH 4.5; activity change, negative = inhibition, % at 105 µM; AID 1467; 230,000 tested, under 10 active; purified enzyme, 4-MU-alpha-Gal fluorescence, pH 4.5; inconclusive = small, poorly fitted or top-dose-only inhibition, or a rising curve; inactive = flat fitted curve, though single readings scatter; no compound was filed as active;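 also: 0% = full activity with enzyme and -100% = basal without enzyme; dose as in the result columns while the protocol names 77 µM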
Target sequence (P06280 whole entry, looked up): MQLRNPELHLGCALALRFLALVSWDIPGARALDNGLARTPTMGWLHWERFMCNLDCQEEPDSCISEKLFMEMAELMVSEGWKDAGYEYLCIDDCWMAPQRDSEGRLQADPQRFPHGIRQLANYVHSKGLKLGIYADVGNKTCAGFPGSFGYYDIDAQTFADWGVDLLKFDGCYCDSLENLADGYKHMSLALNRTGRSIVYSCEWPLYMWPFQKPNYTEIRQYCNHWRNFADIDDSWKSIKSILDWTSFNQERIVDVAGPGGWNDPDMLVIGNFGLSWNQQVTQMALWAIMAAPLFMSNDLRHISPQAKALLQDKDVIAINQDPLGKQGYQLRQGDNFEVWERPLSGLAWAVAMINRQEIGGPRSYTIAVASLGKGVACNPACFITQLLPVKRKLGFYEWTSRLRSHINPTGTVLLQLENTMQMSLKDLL
miR-21 FLuc: miR-21 reporter, rising signal | Potency, µM (top dose mostly 38.3 µM), without a hit: top-dose reporter change, positive = more light | AID 2288 | HeLa miR-21 FLuc reporter, luciferase, 48 h | 340,000 tested, under 10 active; active = well fitted rising curve with a large enough effect; inconclusive = small, poorly fitted or top-dose-only effect; inactive = no such curve, though single readings can be large or run the other way;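 also: % of control where 0% means no effect; miR-21 action dims this reporter so a rising signal means less miR-21 action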
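Using DMEM plus 10% FBS, HeLa miR-21-FLuc cells are incubated with test compounds (final up to about 40uM) for 48 hours; firefly luciferase signal is then imaged following reagent-mediated lysis.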
Rango-impB inh: inhibitors of Rango-importin beta complex formation; Potency, µM (highest dose often 92.2 µM), for inactives: at the highest dose inhibition of complex formation; Rango CFP/YFP FRET sensor + importin beta, 45 min; Q14974; 340,000 tested, 0.031% active; AID 540263; active = rising FRET ratio curve, often small or poorly fitted; inconclusive = mostly compound fluorescence or quenching in the first reads; inactive = flat curves in all reads;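 also: potency is read from the fitted curve at half-maximal effect; 0% = DMSO wells and 100% = buffer wells lacking importin beta; nearly all actives have a fitted effect of over 15% in size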
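FRET biosensor Rango (snurportin 1 IBB between N-terminal EYFP and C-terminal Cerulean), 50 nM in PBS/1 mM DTT/0.02% Tween-20/0.1% BSA, preincubated 5 min RT with compound; 0.125 microM importin beta added, 45 min RT, CFP/YFP FRET ratio read.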
Rango dissoc inh: inhibition of RanGTP-driven Rango-importin beta dissociation; 340,000 tested, 0.071% active; O95149+P62826; Potency, µM (top dose mostly 46.1 µM), without a hit: at the top dose activity change, negative = inhibition; Biochemical FRET Rango-importin beta, RanGTP-induced dissociation; active means falling FRET ratio curve, often poorly fitted, with flat reads before Ran was added; inconclusive means other falling curves, or compound fluorescence or quenching; inactive means flat or rising ratio curve;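 also: potency is read from the fitted curve at half-maximal effect; % of control where 0% means no effect; nearly all actives have a fitted effect of over 45% in size; -100% = wells without RanGTP and RCC1; the record marks most hits as doubtful in a second field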
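Two FRET readings bracket the reaction: one 5 min after compound meets Rango–importin beta, another 45 min after RanGTP-RCC1 (0.6 uM Ran, 0.2 uM RCC1, 2 mM GTP) is added. Only the second defines inhibition.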
* = called active by the depositor; ? = inconclusive; / = no result given; & = joins results of further samples. An excerpt (hit frequency here may not be typical).

Under each structure: GLA inh pH 4.5, Rango-impB inh, miR-21 FLuc, Rango dissoc inh
Cc1ccc(S(=O)(=O)N2CCCC2C(=O)Nc2cc(C)on2)cc1 (centres undefined)
    5, 8.9%, 0%, -3%
CC(C)(C)C1CCc2c(C(=O)N/N=C/c3cccs3)csc2C1 (centres undefined)
    -1, -4.3%, -19%, 13%
CC(C)Cc1cc(C(=O)NCCN2CCOCC2)no1
    1, -3.6%, -6%, 26%
O=C(Nc1ccccc1Cl)c1cccs1
    -5, 0.6%, -34%, -15%
CC(=O)N(C)c1ccc(NC(=O)Nc2ccc(C)cc2)cc1
    6, -1.7%, -24%, 1%
NC(=O)c1c(/N=C/c2cccnc2)sc2c1CCCC2
    6, -0.8%, -53%, -8%
Cc1nc2oc(C(=O)c3ccccc3)c(N)c2c2c1COC(C)(C)C2
    0, ?, -11%, -26%
Cc1c(-c2ccccc2)[n+](=O)c(-c2ccc(Cl)cc2)c(C)n1[O-]
    -7, -1.4%, -1%, -5%
O=C(c1cc2cc(Br)cc(Br)c2oc1=O)N1CCCC1
    4, 1.8%, -3%, ?
COc1ccc(NC(=O)OC(CN2CCCCC2)C(F)(F)F)cc1 (centres undefined)
    -24, 2.1%, -13%, 12%
CCN(CC)C(=O)c1ccc(C(=O)c2ccccc2)cc1
    -2, 4.4%, -17%, 10%
CS(=O)(=O)N(CC(=O)N1CCc2ccccc2C1)c1cccc(F)c1
    /, ?, 0%, -12%
COc1ccc2cc(-c3ccccc3)c(=O)oc2c1
    /, 4.4%, -59%, 16%
CCOc1ccccc1C(=O)NCC(=O)OCc1csc(CC(=O)Nc2ccc(C)cc2)n1
    /, 0.5%, /, 5%
CCOC(=O)c1c(C)nc(C)c(C(=O)OCC)c1-c1ccc(Br)cc1
    -10, 3.2%, 1%, 9%
NC(=O)c1ccccc1NC(=O)CN1CCN(Cc2ccc(Cl)cc2Cl)CC1
    /, 4.6%, 16%, -5%
Cc1ccc(C(=O)O/N=C(\N)c2ccc(Br)cc2)cc1C
    -1, -1.9%, -44%, -7%
CC(C)[C@H](NC(=O)OCc1ccccc1)C(=O)OCC(=O)c1ccccc1
    /, -1.8%, /, -3%
COc1ccc(Oc2nnc(C)c3ccccc23)cc1
    -8, 3.2%, -76%, -14%
C/C(CC(=O)Nc1ccc2c(c1)OCCO2)=N\NC(=O)Cc1ccc(Cl)cc1
    /, -1.8%, -6%, -7%
Cc1onc(-c2ccccc2)c1C(=O)OCC(=O)c1ccccc1
    -2, -0.8%, 0%, -2%
O=C(NCc1ccc2c(c1)OCO2)C(=O)Nc1cc2c3c(c1)CC(=O)N3CCC2
    /, 0.5%, /, -7%
CC(Oc1ccc(F)cc1)C(=O)Nc1cccc(-c2nn[nH]n2)c1 (centres undefined)
    /, 2.0%, -2%, -7%
N#Cc1ccc(OCC(=O)N2CCCC2=O)cc1
    /, -3.5%, /, -6%
COc1cc(OC)cc(C(=O)N2CCCC(Nc3ccc(F)cc3)C2)c1 (centres undefined)
    /, -1.3%, -4%, 9%
CC(=O)c1c(C)oc2c1cc(NS(=O)(=O)c1ccc(C(=O)O)cc1)c1ccccc12
    /, 3.0%, 8%, 20%
Cc1oc(C(C)(C)C)cc1C(=O)NCc1ccc2c(c1)OCO2
    -4, 0.2%, -3%, 6%
CC(NC(=O)NCCCC(=O)O)(C(F)(F)F)C(F)(F)F
    -4, 0.2%, 2%, 34%
C=CCNC(=O)C(=O)NCCOc1ccccc1Cl
    -8, 1.7%, 4%, -3%
O=C(Nc1nnc(S(=O)(=O)Nc2ccccc2)s1)C1CCCCC1
    /, 0.5%, -22%&-48%, -2%
CCCCN1C(=O)CC(Sc2ccccc2C(=O)O)C1=O (centres undefined)
    0, 0.8%, 1%, -6%
CCCn1c(SCC(=O)NC(C)(C)C)nnc1-c1ccco1
    4, -0.6%, -2%, 6%
CC(=O)Nc1cccc(NC(=O)CCc2ccccc2)c1
    10, -0.7%, -14%, 2%
OC(c1ccccc1)c1nccc2ccccc12 (centres undefined)
    2, 1.2%, -7%, 1%
COc1cc(OC)cc(C(=O)NCC(=O)N2CCC(C)CC2)c1
    -29, 0.2%, -4%, 1%
N#CCCn1c(C(C#N)(CCC#N)CCC#N)nc2ccccc21
    -2, -1.2%, -6%, 4%
O=C(NCCc1ccccc1)C1CCN(S(=O)(=O)N2CCCCCC2)CC1
    0, 0.8%, -17%, -3%
Cc1ccc(CN(C(=O)c2csnn2)C(C(=O)NC2CCCC2)c2cccnc2)cc1 (centres undefined)
    /, -1.7%, 7%, -9%
COc1ccc(CN(C(=S)Nc2ccccc2)C2CC(=O)N(c3ccccc3)C2=O)cc1 (centres undefined)
    0, -0.1%, 5%, -20%
Cc1ccc(NC2=C(N3CCCCC3)C(=O)c3ccccc3C2=O)cc1
    7, -2.0%, 18%, 0%

Not a retest: entries from further up.
Under each structure: GLA inh pH 4.5, Rango-impB inh, miR-21 FLuc, Rango dissoc inh
CCCCN1C(=O)CC(Sc2ccccc2C(=O)O)C1=O (centres undefined)
    0, 0.8%, 1%, -6%
CCCn1c(SCC(=O)NC(C)(C)C)nnc1-c1ccco1
    4, -0.6%, -2%, 6%
CC(=O)Nc1cccc(NC(=O)CCc2ccccc2)c1
    10, -0.7%, -14%, 2%

The listing continues.
Under each structure: GLA inh pH 4.5, Rango-impB inh, miR-21 FLuc, Rango dissoc inh
COc1cccc(C2C(C#N)=C(N)Oc3c2oc(CO)cc3=O)c1OC (centres undefined)
    -6, ?, -18%, -4%
CCOc1cc(C(C(=O)NCC2CCCO2)N(C(=O)Cn2nnc3ccccc32)c2ccc(C(C)=O)cc2)ccc1O (centres undefined)
    /, -1.5%, -25%, -4%
Cc1ccc(S(=O)(=O)NCc2ccccc2)cc1C(=O)NC1CCCCC1
    /, -0.3%, 3%, 2%
Cc1c(C(=O)N2CCOCC2)c(S(=O)(=O)Nc2ccccc2F)c(C)n1C
    /, 1.2%, 0%, -2%
O=C(Nc1cc2c(cc1Br)OCCO2)c1cccnc1
    /, -5.5%, -33%, 4%
CC(=O)Nc1ccc(NC(=O)C(C)OC(=O)c2cccc(S(=O)(=O)N3CCCCC3)c2)cc1 (centres undefined)
    /, -1.4%, -7%, -10%
O=C(O)c1ccccc1C(=O)Nc1ccc(Nc2ccc([N+](=O)[O-])cc2[N+](=O)[O-])cc1
    /, -1.0%, -10%, -9%
COC(=O)c1ccccc1-c1ccc(/C=N/Nc2nc(N3CCCC3)nc(N3CCCC3)n2)o1
    0, ?, 15%, -24%
O=C1NC(c2cccc(Cl)c2)Nc2ccccc21 (centres undefined)
    0, 0.0%, -22%, -11%
CCOCCCNC(=O)c1cn(CC)c2ccc(S(=O)(=O)N3CCC(C)CC3)cc2c1=O
    /, 1.5%, -5%, -2%
Cc1sc(NC(=O)CSc2nc(N)cc(N)n2)c(C#N)c1C
    5, 1.8%, -10%, 14%
CN1CCc2c(sc(/N=C/c3ccco3)c2C(N)=O)C1
    ?, ?, -10%, ?
O=C(c1cccs1)c1sccc1Cc1ccccc1
    /, -0.5%, /, -4%
O=C(O)c1nccnc1C(=O)Nc1ccc(Oc2c(Cl)cccc2Cl)nc1
    -1, -1.3%, 1%, -12%
COc1ccccc1NC(=O)Cn1nnc(-c2ccccc2NC(=O)c2cnccn2)n1
    3, 2.1%, -10%, 0%
Cc1ccc(S(=O)(=O)N/N=C\c2ccc(C)o2)cc1
    -5, -0.1%, -4%, -1%
O=C(O)c1cc(S(=O)(=O)Nc2cccc(Oc3ccccc3)c2)ccc1Br
    /, 2.6%, 3%, 14%
CC(C)Cn1cnc2c1c(=O)n(CC(O)c1ccccc1)c(=O)n2CC(C)C (centres undefined)
    -1, 2.6%, 9%, 30%
COc1ccc(/C=N/NC(=S)Nc2cc(C(F)(F)F)ccc2Cl)cc1
    -4, 0.7%, -14%, -3%
O=c1c2ccccc2nc(COc2ccccc2)n1/N=C/c1ccc(O)cc1O
    -20, ?, 4%, ?
CCCN1C(=O)C(NS(=O)(=O)c2ccc(N)cc2)(C(F)(F)F)C(C(=O)OC)=C1C (centres undefined)
    0, -0.5%, -4%, 13%
COc1cccc(/C(O)=C/c2nc3ccc(C(=O)NCCc4cccc(C)c4)cc3[nH]c2=O)c1
    4, ?, -11%, ?
CSC1=C(C#N)C(c2ccc3c(c2)OCO3)C2=C(CCCC2=O)N1 (centres undefined)
    -6, -3.4%, 0%, 2%
O=C(CSCc1cc(=O)n2nc(C3CC3)sc2n1)Nc1ccc(F)cc1
    /, ?, -3%, 26%
Cc1cc(C)n(CC(=O)N2CCCC(N3CCN(c4ccc(F)cc4)CC3)C2)n1 (centres undefined)
    /, 0.9%, 1%, 1%
COc1cccc(C(=O)NCCSc2ccc(C)cc2)c1
    3, -0.4%, -17%, -6%
Cc1cc(C)n(CCN(C)c2nc3nonc3nc2N2CCCCC2)n1
    -1, -2.6%, -4%, 0%
CC(C)(C)NCc1ccc(OCc2cccs2)cc1
    -2, 0.1%, -4%, 1%
CC(C(=O)NCCS(=O)(=O)c1ccc(Cl)cc1)S(=O)(=O)c1ccc(Cl)cc1 (centres undefined)
    -2, -0.2%, 0%, 10%
O=C(C[n+]1ccsc1)c1ccccc1
    1, -0.2%, -19%, -3%
CCCCn1c(N)c(N(Cc2ccccc2OC)C(=O)c2ccc([N+](=O)[O-])s2)c(=O)[nH]c1=O
    /, 3.4%, /, 10%
Cc1ccccc1NC(=O)C1CCCN(S(=O)(=O)c2ccc3c(c2)C(C)(C)C(=O)N3C)C1 (centres undefined)
    /, ?, 1%, -1%
O=C(Nc1cccc(Cl)c1)c1cncn1-c1ccc(F)cc1
    /, -0.9%, 3%, 1%
C#CCN1C(=O)S/C(=C/C=C/c2ccc(N(C)C)cc2)C1=O
    -3, ?, -58%, -15%
COC(=O)c1cc2c(C)cc3ccc(C)cn3c-2c1C(=O)OC
    -1, ?, 3%, ?
CCC1CCc2sc(C(=O)N3CCN(c4ccccn4)CC3)cc2C1 (centres undefined)
    /, 0.2%, /, 3%
CC(C)(C)c1ccc(-c2nnc(SCCC#N)n2C2CCCC2)cc1
    -7, 2.5%, 11%, -6%
O=C(c1cccc(S(=O)(=O)N2CCOCC2)c1)N1CCOCC1
    10, 3.1%, -3%, -1%
CCC(C)[C@H]1CN=C(N)N1CC1CCCCC1 (some centres undefined)
    /, 0.8%, /, 7%
CCCOc1ccc(C(=O)NCC(c2cccs2)N(C)C)cc1 (centres undefined)
    -5, 3.4%, -23%, -1%
C[n+]1nc(Nc2cccc(F)c2)sc1-c1ccc(C(=O)O)cc1
    3, /, -12%, /
COc1cccc2cc(C(=O)N3CCN(c4ccccc4F)CC3)c(=O)oc12
    -10, -0.6%, 0%, -12%
Cn1c(Cc2cccs2)nnc1SCC(=O)N1CCc2ccccc21
    1, -0.1%, -1%, 3%
Cc1nn(Cc2cccc3ccccc23)c(C)c1NC(=O)c1cccnc1
    6, 1.5%, -9%, 2%
CCOc1ccc(C(C)NC(=O)CCC(=O)O)cc1 (centres undefined)
    7, -1.5%, -4%, -7%
COC(=O)c1cc(Br)cn1S(=O)(=O)c1ccccc1
    /, 4.6%, -1%, 35%
CC(=O)c1ccc(-c2nc3c4ccccc4ccn3c2C(C)=O)o1
    -3, -6.1%, -10%, 3%
CC(C)CCOc1ccc(C(=O)NCC(c2cccs2)N2CCOCC2)cc1 (centres undefined)
    /, -4.3%, /, -4%
Cc1cc(NS(=O)(=O)c2ccc(C3CCCCC3)cc2)no1
    2, 0.2%, -17%, -12%
O=[N+]([O-])c1ccc(Cl)c(/C=N/N2CCN(Cc3ccc(Cl)cc3)CC2)c1
    3, 0.4%, 3%, 8%
CCOc1ccccc1NC(=O)C1CCN(S(C)(=O)=O)CC1
    /, -2.0%, 3%, 1%
OCCNc1nc(NCCC2=CCCCC2)nc(N2CCOCC2)n1
    13, -3.0%, -4%, -4%
O=C(O)c1ccccc1Nc1ccccc1C(=O)O
    -5, 0.0%, -2%, -8%
O=C(O)c1ccc(-n2nnc3ccccc32)c([N+](=O)[O-])c1
    /, 0.7%, -6%, 7%
